# Assay outcomes: PubChem, National Center for Advancing Translational Sciences (NCATS)
# AmpC nodet inh – Promiscuous and Specific Inhibitors of AmpC Beta-Lactamase (assay without detergent). P00811. AID 585, 2007. Potency, µM (highest dose often 28.7 µM), inactives show at the highest dose activity change, negative = inhibition. AmpC nitrocefin hydrolysis, absorbance 480 nm, no detergent; potencies from a single point are estimates. 71,000 compounds, 1.8% hits; active = falling curve, for most hits resting on a single point; inconclusive = weak or doubtful change; inactive = flat or rising curve; further: % of control where 0% means no effect; about half of the hits show no inhibition at the top dose; a quarter of the inactives give rising signals
# Target sequence (P00811 whole entry, looked up): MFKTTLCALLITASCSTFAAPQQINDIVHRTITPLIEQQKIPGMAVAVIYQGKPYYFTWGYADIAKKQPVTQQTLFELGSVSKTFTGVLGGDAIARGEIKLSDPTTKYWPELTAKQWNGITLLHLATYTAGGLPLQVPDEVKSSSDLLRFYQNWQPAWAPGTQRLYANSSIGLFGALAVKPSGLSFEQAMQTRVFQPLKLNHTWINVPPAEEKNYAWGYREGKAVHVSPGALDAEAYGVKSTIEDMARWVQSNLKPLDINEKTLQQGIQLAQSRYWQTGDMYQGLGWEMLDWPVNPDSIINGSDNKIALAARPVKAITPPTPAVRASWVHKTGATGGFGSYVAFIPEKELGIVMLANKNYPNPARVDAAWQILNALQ
#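 Enzyme, pH 7.0 phosphate. Compound titrations were pre-incubated with AmpC for 15 min at room temperature before nitrocefin (stock 800 uM) addition; product formation was recorded at 480 nm every 20 s for 4 min.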
# An asterisk follows results filed as active; ? = inconclusive; [ ] = remark or other dose. Potency means the concentration at half of the fitted maximal effect. Only part of the results is shown. The share of hits here may be higher or lower than overall.
SMILES,AmpC nodet inh
CC1(C)S[C@@H]2[C@H](NC(=O)C3(N)CCCCC3)C(=O)N2[C@@H]1C(=O)O,0.01µM*
c1coc(CN2CN=C(Nc3nc4ccccc4s3)NC2)c1,2.1%
COc1cccc2c(=O)c(C/C=C(/C)Cl)c(C)[nH]c12,-8.0%
CCOc1cc(NC(=O)C2CCCO2)c(OCC)cc1NC(C)=O (centres undefined),0.4%
CCOC(=O)Cc1c(C)nc2c(C#N)c(C)nn2c1C,-4.2%
COc1ccc(Cc2nc(-c3ccccc3)no2)cc1,-7.0%
O=C1C2C3C=CC(C3)C2C(=O)N1CNc1ccccc1 (centres undefined),1.9%
CC(C)[C@@H](CC(=O)N[C@@H]1CCNC[C@H]1C(=O)N[C@H](CC(=O)N[C@@H](CCC(=O)O)CC(=O)O)Cc1ccccc1)NC(=O)C[C@H](Cc1c[nH]c2ccccc12)NC(=O)[C@@H]1CCCC[C@H]1N,143.8%
CC1(C)CC(=O)C2=C(C1)NCN(Cc1ccccc1)C2,-2.7%
COc1cccc(NC(=O)c2ccccc2NS(C)(=O)=O)c1,-15.5%
O=C(CCn1nc(-c2ccccc2)c2ccccc2c1=O)N1CCN(c2ccccc2)CC1,116.2%
O=C(CSc1ccc2c(c1)OCCO2)NCCN1C(=O)CSC1=O,-7.5%
CCCCN(C(=O)Cn1nnc2ccccc21)C(C(=O)NCCOC)c1ccc(OC)cc1 (centres undefined),83.4%
CC(C)(O)C#Cc1ccc(C(=O)N2CCCC2C(=O)O)s1 (centres undefined),2.1%
O=C(Nc1ccccc1)N1CCCCC1c1cccnc1 (centres undefined),0.8%
Fc1cccc(F)c1CN1CCN(Cc2c(F)cccc2F)CC1,7.7%
C=CCN1CCN(c2nc3ccccc3nc2C#N)CC1,43.5%
COCCn1c(SCc2ccc(C(=O)OC)o2)nc2cc(Cl)ccc2c1=O,92.6%
CC12C(=O)N(Cc3ccccc3)C(=O)C1C1C=CC2C1 (centres undefined),0.4%
Cc1cccc(NC(=O)C2CCCN(C(=O)NC3CCCCC3)C2)c1C (centres undefined),26.9%
CCOC(=O)c1ccc(N2C(=O)CC(N3CC(C)OC(C)C3)C2=O)cc1 (centres undefined),0.6%
O=C1C2C3C=CC(C3)C2C(=O)N1CCCO (centres undefined),128.8%
COC(=O)COc1cccc(NC(=O)c2ccccc2)c1,-0.1%
CCOC(=O)c1c(C)c(C(=O)NCC2CCCO2)c(C)n1C (centres undefined),2.3%
COc1ccc(C2=Nn3c(nnc3-c3cccnc3)SC2)cc1,27.7%
C=CCn1c(NCCO)nc2sc3c(c2c1=O)CCC3,26.8%
C=CCn1c(SCC(=O)O)nnc1-c1ccc(C(C)(C)C)cc1,-9.6%
CCOC(=O)Cn1nnc(-c2ccc(OCC(C)C)cc2)n1,23.3%
Nc1nc(SC/C=C\c2ccccc2)c2[nH]cnc2n1,-4.3%[5.75 µM]
COc1ccc(Cn2nnnc2C(c2cccs2)N2CCOCC2)cc1 (centres undefined),36.4%

# A draw from above in order of heavy-atom count, low to high:
SMILES,AmpC nodet inh
C=CCn1c(NCCO)nc2sc3c(c2c1=O)CCC3,26.8%
CCOC(=O)c1c(C)c(C(=O)NCC2CCCO2)c(C)n1C (centres undefined),2.3%
COc1ccc(Cn2nnnc2C(c2cccs2)N2CCOCC2)cc1 (centres undefined),36.4%

# The results go on:
SMILES,AmpC nodet inh
COc1ccccc1CNc1ccnc(-c2cccnc2)n1,25.0%
COc1ccc2c(c1)CCc1c(C(=O)NCCc3ccc(OC)c(OC)c3)noc1-2,78.3%
CCC[C@@H]1C[C@@]1(CCC)C(NC(=O)c1ccc(-c2ccccc2)cc1)c1cccc(Cl)c1 (some centres undefined),-0.4%
CC(C)C[C@@H](CC(=O)N[C@@H](CCCN)CC(=O)N[C@@H]1CCCC[C@H]1C(=O)N[C@H](CC(=O)N[C@@H](CCC(=O)O)CC(=O)O)Cc1ccccc1)NC(=O)[C@@H]1CNCC[C@H]1N,144.6%
Cc1cnc(CNc2ccnc(-c3ccc(C(=O)N(C)C)cc3)n2)cn1,2.5%
Cc1nn2c(N3CCN(c4ccccn4)CC3)cc(C(C)C)nc2c1-c1ccccc1,52.4%
CC(C)COC(=O)n1c(SCC(=O)N(C)C)nc2ccccc21,92.9%
O=C(CCc1nc(-c2ccccc2)no1)NCC1CCCO1 (centres undefined),-5.5%
CN1C(=O)C2(C(C#N)=C(N)Oc3n[nH]c(-c4ccc(Cl)cc4)c32)c2ccccc21 (centres undefined),14.2%
COc1ccc(-c2nc3n(n2)C(c2ccccc2Cl)C(C(N)=O)=C(C)N3)cc1 (centres undefined),-5.6%
CC(C)c1ccc(/C=C2\C=C(c3ccc4ccccc4c3)OC2=O)cc1,-10.2%[5.75 µM]
O=C(CCN1C(=O)C2C3C=CC(C3)C2C1=O)NCCc1ccccc1 (centres undefined),16.7%
CC(CNC(=O)C1CCCCC1)NC(=O)C1CCCCC1 (centres undefined),-7.1%
CCC1c2ccc(C)n2CCN1C(=O)Nc1ccc(F)cc1 (centres undefined),-2.8%
COc1ccc(NC(=O)c2ccccc2NS(C)(=O)=O)cc1OC,-0.6%
COC(=O)NCc1ccc(Cl)c(Cl)c1,-11.0%
c1ccc2c(c1)[nH]c1c(NCC3CCCO3)ncnc12 (centres undefined),-23.2%
O=C(Nc1cn(-c2ccccc2)nc1-c1cccs1)c1ccco1,2.6%
Cc1nn(-c2ccccn2)c2c1-c1nc(N)ncc1CC2,-19.6%
CN(C)CCCNC(=O)CC(c1ccccc1)c1ccccc1O (centres undefined),-8.4%
COc1cc2c(cc1NCc1ccccn1)oc1ccccc12,22.5%
Cc1nnc(SCc2ccc(Cl)cc2)n1CC1CCCO1 (centres undefined),22.4%
Oc1ccc(CN2CCCCC2)nc1-c1ccccc1,-12.8%
COc1cc2cc(CN(CCO)S(=O)(=O)c3ccccc3Cl)c(=O)[nH]c2cc1OC,36.2%
CC(C)NC[C@H](O)COc1cccc2[nH]ccc12,-1.5%
CCOC(=O)CSc1nnc(Cn2nnc(-c3ccccc3)n2)n1C,26.6%
COc1ccc(NC(=O)N(Cc2ccc(C)cc2)Cc2ccccn2)c(OC)c1,57.2%
COc1ccc(Oc2ncc3nc(-c4ccc(Cl)cc4)c(=O)n(C4CC4)c3n2)cc1,36.9%
O=C(CSc1nc(O)c(Cc2ccccc2F)c(=O)[nH]1)N1CCCCCC1,1.9%
COCC(=O)N(Cc1ccc(OC)cc1)Cc1nc2ccccc2c(=O)[nH]1,10.3%
CC(C)OC(=O)CN1C(=O)C(C)(C)Oc2ccc(C(=O)NC3CC3)cc21,7.4%
O=C(CSc1nc(N2CCCCC2)nc(N2CCCCC2)n1)c1ccccc1,-14.0%
Cc1c(C(=O)CN2CCOCC2)[nH]c2ccccc12,4.5%
COc1ccc(NC(=O)C2CCCN2c2ccc(OC)c(OC)c2)cc1OC (centres undefined),57.5%
N#C/C(=C(/O)CN1CCOCC1)c1nc2ccccc2s1,-2.3%
CCCS(=O)(=O)c1c(S(=O)(=O)CCC)c2c3ccccc3ccn2c1C(N)=O,51.0%
O=C(Nc1nncs1)c1ccc(N2C(=O)C3C4C=CC(C4)C3C2=O)cc1 (centres undefined),-9.8%
CCOC(=O)C1=C(c2ccccc2)OC(N)=C(C#N)C1C(C)C (centres undefined),-2.9%
CSC1=C(C#N)C(c2cccc(Br)c2)CC(=O)N1 (centres undefined),-6.6%
c1ccc(CSc2nnc(-c3ccncc3)o2)cc1,7.3%
COc1ccc(C2C(C(=O)c3cccs3)=C(O)C(=O)N2c2nncs2)cc1 (centres undefined),-15.4%
Nc1nnc(-c2cc3ccccc3oc2=O)s1,-7.7%
CSc1nsc(SC)c1NC(=O)OCc1ccccc1,-11.9%
C=CCn1c(NC(=O)c2ccc(C)cc2)c(C#N)sc1=N,-8.7%
CCCc1[nH]nc2c1C(c1cn[nH]c1-c1ccc(F)cc1)C(C#N)=C(N)O2 (centres undefined),8.3%
CCOC(=O)c1c(C)n(C)c2c(C)cc(O)c(OC(=O)CC)c12,10.3%
CN(C)C(=O)N1CCC(C(=O)NCc2ccccc2)CC1,-9.6%
CC(=O)c1ccc(NC(=O)CSc2nnc(NC(=O)CN3CCOCC3)s2)cc1,-2.4%
COc1ccccc1CN(C)C(=O)C1COc2ccccc2O1 (centres undefined),1.3%
Cc1c(N(C(=O)c2cc(=O)[nH]c3ccccc23)C(C)C)c(=O)n(-c2ccccc2)n1C,8.8%

# Next structures follow.
SMILES,AmpC nodet inh
Cc1noc(C)c1-c1nccc(N(C)Cc2ccco2)n1,23.0%
CC(=O)N1CCc2cc(S(=O)(=O)CCC(=O)NCc3ccc4c(c3)OCO4)ccc21,-9.0%
CC1=C(SCCC#N)S/C(=C2\SC(C)=C(SCCC#N)S2)S1,?
CSC1=NCCN1C(=O)c1ccc(S(=O)(=O)N2CCCC2)cc1,-1.3%
Oc1cccc(C(=S)N2CCN(Cc3ccccc3)CC2)c1,1.2%
c1ccc(Cn2nnnc2C(c2cccnc2)N2CCN(C3CCCCC3)CC2)cc1 (centres undefined),-3.0%
CC1CCCCN1C(=O)Cn1nnc(-c2cccnc2)n1 (centres undefined),54.7%
Cc1cc2nn(-c3ccccc3)nc2cc1NC(=O)c1cccs1,3.4%
Cc1nc2c(C(=O)N3CCCCC3)cnn2c(C)c1Cc1ccccc1F,93.5%
CCOc1ccc(NC(=O)CSc2nnc(C)n2CCCOC)cc1,13.4%

# 6 compounds picked at random from the list so far:
SMILES,AmpC nodet inh
CSC1=NCCN1C(=O)c1ccc(S(=O)(=O)N2CCCC2)cc1,-1.3%
CCOC(=O)Cn1nnc(-c2ccc(OCC(C)C)cc2)n1,23.3%
CC1=C(SCCC#N)S/C(=C2\SC(C)=C(SCCC#N)S2)S1,?
O=C(CSc1ccc2c(c1)OCCO2)NCCN1C(=O)CSC1=O,-7.5%
Cc1cccc(NC(=O)C2CCCN(C(=O)NC3CCCCC3)C2)c1C (centres undefined),26.9%
CCOc1ccc(NC(=O)CSc2nnc(C)n2CCCOC)cc1,13.4%

# (next part)
SMILES,AmpC nodet inh
O=C(CC1SCCNC1=O)Nc1cccc(C(F)(F)F)c1 (centres undefined),9.3%
CCC(C)(C(=O)NC1CCCC1)N(C(=O)CNC(C)=O)c1ccc(C)cc1 (centres undefined),24.4%
CN(CC(=O)N1CC(=O)N(CCc2ccccc2)C(=O)C1)S(=O)(=O)c1cccc2nsnc12,60.5%
COc1cc(NC(=O)c2cc3c(=O)n(C)c4ccccc4c3n2C)cc(OC)c1OC,24.0%
N#Cc1cccc(NC(=O)N2CC[C@@]3(CCCN(C(=O)c4cccc(F)c4)C3)C2)c1,16.3%
Cc1onc(-c2ccccc2Cl)c1C(=O)Nc1ccc(S(=O)(=O)NCC2CCCO2)cc1 (centres undefined),17.0%
Cc1onc(-c2ccccc2)c1C(=O)Nc1cccc(C#N)c1,-6.6%
CCOc1ccccc1N1CCN(C(=O)Nc2ccc(F)c(Cl)c2)CC1,14.4%
O=C1OCCN1CCN(CN1C(=O)CCC1=O)CN1C(=O)CCC1=O,-3.6%
CCOC(=O)c1ccc(N2C(=O)CC(C(=O)OC)=C2C)cc1,23.5%
O=c1c(-c2ccccc2)nc2cnc(Oc3ccccc3)nc2n1Cc1cccs1,-2.0%
Cc1ccc(OCCC(=O)OCC(=O)N2c3ccccc3CC2C)cc1 (centres undefined),31.7%
CCCCCCCCC,-10.2%
CCOC(=O)N1CCC(NC(=O)CCS(=O)(=O)c2ccc3c(c2)CCN3C(=O)CC)CC1,13.4%
Cn1c(-c2ccccc2)cccc1=O,0.5%
CCOc1ccc(Cn2nnc(C(=O)NCc3ccc(OC)cc3)c2N)cc1,3.98µM*[single pt active]
CCS(=O)(=O)Nc1c(C(=O)OC)[nH]c2ccccc12,1.6%
O=C(CCCN1C(=O)CSc2ncccc21)N1CCN(c2cccc(C(F)(F)F)c2)CC1,102.8%
CC(=O)Nc1ccc(S(=O)(=O)N2CCSCC2)cc1,-10.0%
CCn1cc(C(=O)OCc2ccccc2)c(=O)c2ccc(C)nc21,17.1%
Cc1cc(C(=O)N2CCN(CCc3ccccc3)CC2)no1,26.6%
CCOC(=O)N1CCN(C(=O)c2ccc3c(=O)n(-c4ccc(OC)cc4)c(=S)[nH]c3c2)CC1,21.7%
CC1Cc2nc(SCC(=O)OCc3ccccc3)n(C)c(=O)c2S1 (centres undefined),16.9%
CCCOc1ccc(C(=O)NCc2cccnc2)cc1,10.6%
O=C(c1csnn1)N1CCC2(CC1)CN(C(c1ccccc1)c1ccccc1)C2,83.4%
CC(NC(=O)c1cc(-c2ccc(O)cc2)on1)c1ccccc1 (centres undefined),-0.4%
C/C(Cl)=C/Cn1c(SCCN2CCOCC2)nc2c1c(=O)[nH]c(=O)n2C,21.4%
Cc1ccc(/C=c2\sc3nc(-c4ccccc4Br)nn3c2=O)o1,-6.9%
Cc1cc(OCC(=O)c2ccc(F)cc2)ccc1N1C(=O)CCC1=O,15.0%
O=C(Nc1ccccc1OC(=O)N1CCCCC1)N1CCCCC1,1.4%
O=C(CN1C(=O)CCSc2ccccc21)N1CCC2(CC1)OCCO2,4.6%
CC(C)(/C=N/O)/[N+]([O-])=C/c1ccccc1C(F)(F)F,13.3%
CC(=O)Nc1cccc2c1OCCO2,-9.5%
CC1(C)N=C(/C=N/O)CN1O,-6.4%
O=C(CN(Cc1ccc2c(c1)OCO2)C(=O)CNC(=O)c1ccco1)NC1CCCCC1,16.3%
C[C@@H]1CN(CCCn2c3ccccc3c3ccccc32)C[C@H](C)N1,84.4%
O=C1CC(c2c[nH]c3ccccc23)C(=O)N1 (centres undefined),-16.8%
CCN(CC)CCCn1c(-c2ccccc2)nc2c(NCc3ccccc3)nc(C)nc21,73.0%
Cc1ccc(N(CN2CCCC2=O)C(=O)c2ccc(OC(C)C)cc2)cc1,78.3%
Cc1ccc(S(=O)(=O)NC2=NCN(C3CCN(Cc4ccccc4)CC3)CN2)cc1,-13.3%
